Source: PubChem
NPYLR7 ag: activates Aedes aegypti NPYLR7 receptor. HEK293T NPYLR7/Galpha15, GCaMP6s calcium fluorescence. activation, % at 10 µM. actives 0.15% (n = 270,000); in the data active means activation above about 40%;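 further: 0% = vehicle and 100% = reference agonist at the receptor; some compounds past the cut are filed as inactive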
NPYLR7 ag max-min: recorded beside NPYLR7 ag, whose call it bears; activation, %; measured here: Max-Min RFU normalised activation; some inactives read as strong as hits;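 span of the calcium signal over five minutes; 0% = vehicle and 100% = native peptide agonist; compound fluorescence can raise it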
The depositor's hits bear a star; & = joins results of further samples.

Under each structure – NPYLR7 ag	NPYLR7 ag max-min
1) CCc1nc(-c2nccn2Cc2cccc(C(F)(F)F)c2)c(C)[nH]1
    -4	-6
2) O=C(NCc1ccccc1)N1CC[C@@]2(C1)[C@H](O)CN(c1ccccc1)S2(=O)=O
    4	10
3) O=C(c1ccc(CSc2nc(Cl)cc(N3CCC4(CC3)OCCO4)n2)cc1)N1CCN(c2cccc(C(F)(F)F)c2)CC1
    -3	9
4) O=C(NCc1cccnc1)c1coc(CN(CCc2c[nH]c3ccccc23)Cc2ccc(C(F)(F)F)cc2)n1
    10	19
5) COc1ccc(NC(=O)C2=C(C#N)CCC2)cc1
    0	3
6) Cc1ccc(NC(=O)N2CCSCC2CCO)cc1 (stereo not drawn)
    8	5
7) CC(=O)Nc1ccc(N2C(=O)CSC2c2ccc(C(C)(C)C)cc2)cc1 (stereo not drawn)
    -8	-10
8) O=C(NCc1ccc(S(=O)(=O)N2CCCCC2)cc1)NCc1cccc(C(F)(F)F)c1
    -8	-7
9) Fc1ccccc1C1c2cccn2CCCN1Cc1cccc(Oc2ccccc2)c1 (stereo not drawn)
    8	15
10) CCCC(C(=O)O)N1C(=O)C2CC=C(Cl)CC2C1=O (stereo not drawn)
    2	2
11) COc1ccc(N2CCCn3c2nc2c3c(=O)n(C)c(=O)n2C)cc1
    -3	-3
12) COC(=O)c1cccc(NC(=O)CN2CCCN(c3nccs3)CC2)c1
    3	-12
13) Cc1cccc(-n2nc(C(=O)Nc3ccccc3)c(=O)n(Cc3ccccc3Cl)c2=O)c1
    0	1
14) Cc1ccc(C(=O)N2CCCC2(C)C(=O)NCC(C)C)cc1F (stereo not drawn)
    4	0
15) CN1CCC(C)(C(=O)Nc2cccc3cccnc23)C1 (stereo not drawn)
    0	-1
16) CCOC(=O)c1ccc(NC(NC(=O)OC)(c2ccccc2)C(F)(F)F)o1 (stereo not drawn)
    3	10
17) CCOC(=O)C1(CCc2ccccc2)CCCN(C(=O)c2ccccc2-c2ncc[nH]2)C1 (stereo not drawn)
    13	-1
18) O=C(c1csc2c1CCCC2)N1CCCC(CNS(=O)(=O)c2cccs2)C1 (stereo not drawn)
    4	-2
19) CC(C)Cc1cc(C(=O)N2CCCN(C)C3(CCN(C)CC3)C2)nc(N)n1
    3	1
20) Cc1nc(N2CCN(C)CC2)ncc1C(=O)N1C[C@H]2CC=CC[C@H]2C1
    -4	-4

One compound at a time, as listed above:
Results for CC(C)Cc1cc(C(=O)N2CCCN(C)C3(CCN(C)CC3)C2)nc(N)n1 → NPYLR7 ag: 3; NPYLR7 ag max-min: 1
Results for CCOC(=O)c1ccc(NC(NC(=O)OC)(c2ccccc2)C(F)(F)F)o1 (stereo not drawn) → NPYLR7 ag: 3; NPYLR7 ag max-min: 10
Results for Cc1nc(N2CCN(C)CC2)ncc1C(=O)N1C[C@H]2CC=CC[C@H]2C1 → NPYLR7 ag: -4; NPYLR7 ag max-min: -4

Later entries.
Under each structure – NPYLR7 ag	NPYLR7 ag max-min
21) CCn1cc(C(C)NC(=O)c2ccc(COCC(F)(F)F)cc2)c(C)n1 (stereo not drawn)
    6	2
22) Cc1ccc(S(=O)(=O)N2CCC(C(=O)NCC3(N(C)C)CCCCC3)CC2)c(C)c1
    -1	-1
23) COc1ccc(F)c(-c2cc(C(=O)NC3CC3)ccn2)c1
    2	1
24) Cc1nc2ccc(C(=O)N(C)CC3CCCN(CCc4ccc(Cl)cc4)C3)cc2[nH]1 (stereo not drawn)
    11	-4
25) O=C1CSC(c2ccc(OC(F)F)cc2)N1C1CCCCC1 (stereo not drawn)
    5	-6
26) CCN=c1scc(-c2cc(OC)ccc2OC)n1N=C(C)c1ccco1
    -6	-13
27) CSc1ccc(C(=O)NC(C)(C)C)cc1[N+](=O)[O-]
    -8	-8
28) CCCCC#Cc1nc(NC)c2ncn([C@@H]3O[C@H](CO)[C@@H](O)[C@H]3O)c2n1
    17	0
29) Cc1ccc2nc(CSCc3nc4ccc(Cl)cc4n3CCO)cc(=O)n2c1
    -3	-4
30) CCCCc1cn(CC2CCCN(C(=O)c3cc(C)c(C)[nH]c3=O)C2)nn1 (stereo not drawn)
    2	2
31) Cc1ccc(Cl)c2c(N=O)c(O)[nH]c12
    -8	-10
32) Cn1cc(CN(CCO)C(=O)C2CCCN(C3CCCCC3)C2)cn1 (stereo not drawn)
    1	-8
33) CCC(C)C(N)C(=O)Nc1nnc(-c2cccc(OC)c2)s1 (stereo not drawn)
    6	14
34) CC(C)N1CCCN(c2nc(-c3cccnc3)nc3c2cnn3C)CC1
    18	12
35) CCOC(=O)C1CCCN(C(=O)c2cc(-c3ccc(F)cc3)nc3cc(-c4ccccc4)nn23)C1 (stereo not drawn)
    3	20
36) CN(C)S(=O)(=O)c1cccc(NC(=O)N2CCN(Cc3ccco3)CC2)c1
    6	0
37) CCCS(=O)(=O)N1CCN=C1SCc1ccccc1
    -2	4
38) C1=C(c2ccccc2)CCN(c2ncnc3c2oc2ccccc23)C1
    2	16
39) Cc1ccc(NC(=O)C(C)Cn2cncn2)c(C)c1 (stereo not drawn)
    1	10
40) COc1ccc(CCNC(=O)C(=O)c2cn(CC(=O)N3CCCCCC3)c3ccccc23)cc1OC
    -4	-3

2 of the compounds above, as labelled records.
(36) CN(C)S(=O)(=O)c1cccc(NC(=O)N2CCN(Cc3ccco3)CC2)c1
  NPYLR7 ag: 6	NPYLR7 ag max-min: 0
(39) Cc1ccc(NC(=O)C(C)Cn2cncn2)c(C)c1 (stereo not drawn)
  NPYLR7 ag: 1	NPYLR7 ag max-min: 10

Remaining list, next part:
Under each structure – NPYLR7 ag	NPYLR7 ag max-min
41) CC1CCCCN1C(=O)CCC1(Cc2ccc(Cl)cc2)CCC(=O)N1 (stereo not drawn)
    5	2
42) CCn1c(C2CCN(C(=O)c3nn(C)c4ccccc34)CC2)nn(C)c1=O
    7	-2
43) O=C(NC1CCCC1)N1CCN(S(=O)(=O)c2cc(F)ccc2F)CC1
    6	6
44) CC1=NOC(C)(C(=O)N2CCc3onc(-c4ccc(F)c(F)c4)c3C2)C1 (stereo not drawn)
    3	2
45) CCC(CC)C(=O)NCCn1nc(-c2cccs2)ccc1=O
    0	-3
46) Cn1nc(NC(=O)c2ccc(F)cc2F)c2c1NC(=O)CC2c1ccco1 (stereo not drawn)
    -13	-21
47) Cc1ncoc1C(=O)N1CCC2(CCCN(CC3CCCCC3)C2=O)C1 (stereo not drawn)
    2	2
48) C=C(Br)Cn1c(-c2cccs2)nc2ccccc21
    0	1
49) NC(=O)c1nc(-c2cccc(O)c2)nc2c1[nH]c(=O)n2-c1ccc2c(c1)OCO2
    24	11
50) CN(Cc1nnc(C2CC2)o1)C1CCN(CC(=O)NC2CC2)C1 (stereo not drawn)
    6	4
51) CC1=NC2=C(C(=O)CCC2)C(c2ccccc2F)C1C(=O)OCCc1ccccc1 (stereo not drawn)
    -3	-8
52) CCc1c(C)c(C#N)c2nc3ccccc3n2c1NCCCN(C)C
    5	2
53) CCOC(=O)c1nn(-c2ccccc2)c(=O)cc1N1CCCc2ccccc21
    7	1
54) COc1ccccc1-n1c(SCc2nc(C(=O)Nc3ccc(F)cc3)cs2)nnc1-c1cccnc1
    12	8
55) CC(C)c1nc(=S)[nH]n1-c1ccccc1
    4	9
56) CCOC(=O)c1c(CSc2nc3ccccc3s2)n(-c2ccccc2)c2cc(Br)c(OC)cc12
    11	13
57) CCOC(=O)c1ccc(NC(=O)C2CC(=O)N(Cc3ccccc3)C(=Nc3ccccc3)S2)cc1 (stereo not drawn)
    -10	-16
58) Cc1nc2c(c(NCc3csc(-c4cnccn4)n3)n1)CCN(C)CC2
    5	1
59) COc1cc(OC)cc(C(=O)N2CCN(c3ccc(Br)cc3)C(=O)C2C)c1 (stereo not drawn)
    1	2
60) Cc1cccc2c1C(=O)NC1(CCN(C(=O)C(C)C)CC1)N2
    15	28

A different layout for part of the listing above.
# | Structure | NPYLR7 ag | NPYLR7 ag max-min
46 | Cn1nc(NC(=O)c2ccc(F)cc2F)c2c1NC(=O)CC2c1ccco1 (stereo not drawn) | -13 | -21
47 | Cc1ncoc1C(=O)N1CCC2(CCCN(CC3CCCCC3)C2=O)C1 (stereo not drawn) | 2 | 2
48 | C=C(Br)Cn1c(-c2cccs2)nc2ccccc21 | 0 | 1
49 | NC(=O)c1nc(-c2cccc(O)c2)nc2c1[nH]c(=O)n2-c1ccc2c(c1)OCO2 | 24 | 11
50 | CN(Cc1nnc(C2CC2)o1)C1CCN(CC(=O)NC2CC2)C1 (stereo not drawn) | 6 | 4
51 | CC1=NC2=C(C(=O)CCC2)C(c2ccccc2F)C1C(=O)OCCc1ccccc1 (stereo not drawn) | -3 | -8
52 | CCc1c(C)c(C#N)c2nc3ccccc3n2c1NCCCN(C)C | 5 | 2

Remaining list, next part:
Under each structure – NPYLR7 ag	NPYLR7 ag max-min
61) CCc1nc2ccc(C(=O)Nc3ccc(C(N)=O)cc3)cn2c1N(C)C(=O)c1cccc(OC)c1
    -5	31
62) O=C(Nc1cccc(C(F)(F)F)c1)Nc1ccc2nc([C@@H]3O[C@H](CO)[C@@H](O)[C@H](O)[C@H]3O)[nH]c2c1
    10	14
63) COc1ccccc1C(=O)Nc1cccc(-c2nc3ncccc3o2)c1
    -5	11
64) CC(CNC(=O)N1CCCC1(C)C)CN(C)C(=O)OC(C)(C)C (stereo not drawn)
    2	0
65) Cc1ccccc1OCCN(C)C(C)C(=O)NC1CCCCC1 (stereo not drawn)
    0	0
66) COC(=O)C(C)Sc1ccc2nnc(-c3cccs3)n2n1 (stereo not drawn)
    -3	-4
67) COc1ccccc1N1CCN(c2nc(N3CCCCC3)c3cnn(C)c3n2)CC1
    2	0
68) COc1ccc(CNC(=O)c2cccnc2N2CCN(C(=O)c3ccc(OC)cc3OC)CC2)cc1
    19	2
69) COc1ccc(-c2nn(-c3ccccc3C)cc2CNC(C)c2cn(C)nc2C)cc1F (stereo not drawn)
    8	-2
70) CC(OCC1CCCO1)C(=O)Nc1ccc2c(c1)CCCN2C (stereo not drawn)
    7	1
71) Cc1ccc(C(=O)NCCN2C(=O)C(=Cc3ccc4c(c3)OCO4)SC2=S)cc1
    -2	-2
72) OC(COc1ccccc1)Cn1cc(Br)cn1 (stereo not drawn)
    5	-2
73) O=C(NCc1ccccc1-n1cccn1)C1CC2(CCNCC2)CN1 (stereo not drawn)
    7	0
74) CC(C)CN1C(=O)C2C3C=CC(C3)C2C1=O (stereo not drawn)
    4	3
75) O=S(=O)(N[C@H]1CO[C@H]2[C@@H]1OC[C@@H]2Nc1nccc(-c2cccc(F)c2)n1)c1cccc2cccnc12
    -19	-23
76) CC1(C(=O)Nc2ccccc2Br)CCN1C(=O)CCC1CCCC1 (stereo not drawn)
    2	2
77) CCC(C)N(Cc1ccncc1)C(=O)CCSC (stereo not drawn)
    -4	-3
78) Cc1ccc(C2CSCCN2C(=O)c2cn3cccnc3n2)cc1 (stereo not drawn)
    3	0
79) CCOc1ccc2nc(NC(=O)CCNC(=O)C34CC5CC(CC(C5)C3)C4)sc2c1
    -1	-1
80) CC1C=CCC2C(=O)N(c3ccc(F)c([N+](=O)[O-])c3)C(=O)C12 (stereo not drawn)
    -8	-12

Carrying on.
Under each structure – NPYLR7 ag	NPYLR7 ag max-min
81) CC(NC(=O)c1ccc(-n2cccc2)cc1)c1ccccn1 (stereo not drawn)
    1	-2
82) Cc1ccccc1-n1c(SCc2ccc(C(=O)O)cc2)nnc1-c1ccncc1
    1	-3
83) COc1ccc(CN2C(=O)N(CC(C)C)C3(CCN(Cc4cccc5ncccc45)CC3)C2=O)cc1
    3	-4
84) Cc1nn2c(=O)[nH]c(SCC(=O)Nc3ccc4c(c3)OCCO4)nc2c1-c1ccccc1
    10	8
85) CCOC(=O)C1CCN(CC(=O)N2N=C(c3ccc(C)cc3C)CC2c2ccc3c(c2)OCO3)CC1 (stereo not drawn)
    -1	9
86) Cc1nc(SCCCSc2n[nH]c(C)n2)n[nH]1
    4	2
87) COc1ccc(S(=O)(=O)N2CCC(C(=O)NC(C)CCC(C)C)CC2)cc1 (stereo not drawn)
    2	8
88) O=C1OC(CN2CCOCC2)CN1/N=C\c1ccc([N+](=O)[O-])o1 (stereo not drawn)
    13&-3	12&-4
89) CCc1nc(SCC(=O)NCCc2n[nH]c3c2CCCC3)n[nH]1
    2	-1
90) COc1ccc(-c2cc(C(=O)NCCN(C)C)n3nc(C(C)(C)C)cc3n2)cc1
    -14	-10
91) CC(OC(=O)[C@@H]1CCCN1C(=O)OC(C)(C)C)c1nc2ccccc2[nH]1 (stereo partly drawn)
    6	-3
92) Cn1c(Cc2csc3nc(-c4ccccc4)nn23)n[nH]c1=S
    -11	-20
93) CC(c1ccc(Br)cc1)N1CCCC(C)(CO)C1 (stereo not drawn)
    0&7	-2&6
94) O=C(O)C1(Cc2ccc(F)cc2)CCCN(c2cnc3ccccc3n2)C1 (stereo not drawn)
    1	-12
95) Cc1nn(C)cc1-c1ccnc(NCC2CCN(Cc3ccccc3)C2)n1 (stereo not drawn)
    4	0
96) O=C(Oc1ccc(Cl)cc1)c1cc([N+](=O)[O-])ccc1Cl
    12	17
97) CC1CCC(NC(=O)c2cccnc2N(C)C)CC1 (stereo not drawn)
    1	1
98) COc1ccccc1CCNC(=O)CN1CCOC(C(F)(F)F)C1 (stereo not drawn)
    13	8
99) COc1ccc(CNC(=O)C(=O)c2ccc(C3CCCCC3)cc2)cc1
    -4	-11
100) Cc1nc2c(=O)n(CC(=O)N3CCc4ccccc43)nc(-c3ccc(Cl)cc3)c2s1
    2	-1

Quoted at random: two compounds from above
Under each structure – NPYLR7 ag	NPYLR7 ag max-min
96) O=C(Oc1ccc(Cl)cc1)c1cc([N+](=O)[O-])ccc1Cl
    12	17
88) O=C1OC(CN2CCOCC2)CN1/N=C\c1ccc([N+](=O)[O-])o1 (stereo not drawn)
    13&-3	12&-4

Other structures
Under each structure – NPYLR7 ag	NPYLR7 ag max-min
101) O=C1c2ccccc2C(=O)N1CN(C(=O)c1ccccc1)c1ccc(F)cc1
    1	-3
102) CC(=O)Nc1ccc(Cl)c(C(=O)NCC2CCCN(C)C2)c1 (stereo not drawn)
    9	7
103) O=C(CC1CCCC1)Nc1ccc(S(=O)(=O)C(F)F)cc1
    -6	-6
104) O=C(CC(c1ccccc1)c1ccc(F)cc1)NCc1ccno1 (stereo not drawn)
    3	19

A portion of the library; count on the stated rates, not on these rows.
